VDR inh – inhibitors of human vitamin D receptor; P11473; VDR-SRC2-3 peptide fluorescence polarization, 2 h; Potency, µM, inactives show max response, negative = inhibition, most hits filed as inhibitors; actives 0.93% (n = 400,000); AID 504847; active = well fitted inhibition curve with a large enough effect; inconclusive = small, poorly fitted or top-dose-only effect, or another doubt; inactive = no such curve, though single readings can be large or run the other way; also: series mostly up to about 120 µM
Target sequence (P11473 whole entry, looked up): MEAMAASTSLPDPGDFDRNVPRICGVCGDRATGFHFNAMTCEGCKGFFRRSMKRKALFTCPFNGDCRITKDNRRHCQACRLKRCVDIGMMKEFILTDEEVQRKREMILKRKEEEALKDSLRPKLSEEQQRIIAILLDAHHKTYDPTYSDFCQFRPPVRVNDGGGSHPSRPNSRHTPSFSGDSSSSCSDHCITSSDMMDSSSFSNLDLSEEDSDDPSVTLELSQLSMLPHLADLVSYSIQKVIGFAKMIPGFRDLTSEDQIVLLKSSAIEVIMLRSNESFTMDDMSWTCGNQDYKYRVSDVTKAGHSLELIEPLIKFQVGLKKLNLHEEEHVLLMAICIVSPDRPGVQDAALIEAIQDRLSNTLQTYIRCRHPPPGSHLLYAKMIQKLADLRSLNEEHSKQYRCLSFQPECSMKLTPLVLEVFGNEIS
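Measured by FP: displacement of SRC2-3 coactivator peptide from VDR by library compounds, following a two-hour ambient incubation.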
Starred values were filed as active, the others as inactive; ? = inconclusive; & = joins results of further samples. % is scaled to controls: 0 for no effect and ±100 for the full control effect; potency is read from the fitted curve at half-maximal effect.

| VDR inh | smiles |
| --- | --- |
| -15.1% | O=C(CCc1nnc2ccc(N3CCCC3)nn12)Nc1cc(F)ccc1F |
| 2.4% | Cc1ccc(-n2c(O)c(C=Nc3ccc(S(=O)(=O)Nc4ncccn4)cc3)c3ccccc3c2=O)cc1C |
| 9.8% | COc1ccccc1C(=O)NC(=O)Nc1c(C)cc(C)cc1C |
| 10.1% | CC(C)=N/N=C(/c1ccc([N+](=O)[O-])cc1)C12CN3CN(CN(C3)C1)C2 |
| -7.4% | CC(C)N(C(=O)CSc1nc(COc2ccccc2)nc2ccccc12)C(C)C |
| 0.3% | COc1ccc(OC)c(S(=O)(=O)n2cccn2)c1 |
| -5.9% | O=C(CNc1cccc2ccccc12)N/N=C/C(Br)=C/c1ccccc1 |
| -3.7% | N#Cc1nc(-c2ccc(OCc3ccc(Cl)cc3)cc2)oc1NCCCn1ccnc1 |
| 0.2% | O=C1C=CN(Cc2ccccc2)CC1 |
| -5.4% | Cn1c(SCC(=O)Nc2ccccc2F)nc2c([nH]c3ccccc32)c1=O |
| 6.4% | CCOC(=O)c1c(NC(=O)CSc2ncn[nH]2)sc(C)c1C |
| -6.2% | CCCN(CCC)S(=O)(=O)c1ccc(C(=O)N2CC3CCC(CC3)C2)cc1 |
| -2.2% | CSc1nc2sc3c(c2c(=O)[nH]1)CC(C)(C)OC3 |
| 0.5% | Cc1ccc(-c2oc3ccccc3c(=O)c2O)cc1 |
| ? | Cc1ccc2c(c1Br)/C(=N/N1C(=O)c3ccccc3C1=O)C(=O)N2 |
| 24.5% | Cc1cc(NC(=O)CCCC(=O)NCc2ccccc2)no1 |

A draw from above in order of formula weight, highest first:
| VDR inh | smiles |
| --- | --- |
| -6.2% | CCCN(CCC)S(=O)(=O)c1ccc(C(=O)N2CC3CCC(CC3)C2)cc1 |
| ? | Cc1ccc2c(c1Br)/C(=N/N1C(=O)c3ccccc3C1=O)C(=O)N2 |
| -5.4% | Cn1c(SCC(=O)Nc2ccccc2F)nc2c([nH]c3ccccc32)c1=O |

The listing continues:
| VDR inh | smiles |
| --- | --- |
| -12.4% | C=CCS(=O)(=O)N1CCCC(C(=O)c2cccc(Cl)c2)C1 (stereo not drawn) |
| -7.4% | C=CCN(C(=O)CCC(=O)Nc1cc(C)on1)C(C(=O)NC1CCCC1)c1ccc(C)cc1 (stereo not drawn) |
| 0.9% | CCCCn1c(=NC(=O)C(C)(C)Oc2ccc(Cl)cc2)c(C(=O)OCC)cc2c(=O)n3ccccc3nc21 |
| 8.0% | O=C(Nc1nccs1)c1nc[nH]c1C(=O)N1CCN(c2ccccc2)CC1 |
| 28.4% | Cn1c(=O)cc(C(=O)N/N=C/c2ccc(F)cc2)[nH]c1=O |
| -28.0% | CCc1cccc(C)c1Nc1c(-c2ccccc2)nc2sccn12 |
| -11.1% | Cc1cc(N2CCOCC2)c2c(N)c(Br)cc(C)c2n1 |
| 11.2% | O=C(CSc1nnc(-c2ccco2)o1)NCC(=O)c1ccccc1 |
| -16.0% | COC(=O)c1ccc(NC(=O)COc2cccc3c2OC(C)(C)C3)cc1 |
| -0.8% | CCC(=O)N1CCc2cc(S(=O)(=O)NCCc3ccc(S(N)(=O)=O)cc3)ccc21 |
| -9.1% | O=C(Cc1ccccc1[N+](=O)[O-])N1CCN(c2ccccc2F)CC1 |
| 0.7% | CCOC(=O)CC1(C)NC(=O)c2c(C)sc(C(=O)OCC)c2N1 (stereo not drawn) |
| 9.0% | CCc1ccc(S(=O)(=O)NCc2cn3cccc(C)c3n2)s1 |
| 1.0% | Cc1cccc(OCc2cc(-c3ccccc3)no2)c1C |
| -6.0% | CCOC(=O)C1=C(c2ccccc2)OC(N)=C(C#N)C1c1cccnc1 (stereo not drawn) |
| 4.1% | COc1ccc(CN2CCc3c(c(=O)n4ncc(C(=O)N5CCN(c6ccc(F)cc6)CC5)c4n3C)C2)cc1 |
| 4.9% | COc1ccc(CCNC(=O)C(=O)NCC(c2cccs2)S(=O)(=O)c2cccs2)cc1 (stereo not drawn) |
| -2.0% | COc1cc(NC(=O)c2nc3cc(C)c(C)cc3n(C)c2=O)cc(OC)c1OC |
| -5.1% | O=[N+]([O-])c1ccc(Oc2ccc(S(=O)(=O)N3CCCCC3)cc2)cc1 |
| 8.7% | CSCCC(NC(=O)c1ccc(Cl)cc1Cl)C(=O)NCc1ccncc1 (stereo not drawn) |
| 21.9% | O=C(CN(C(=O)CCC(=O)Nc1nccs1)c1ccc2c(c1)OCO2)NCc1ccc(F)cc1 |
| 8.0% | Cc1ccc(S(=O)(=O)Nc2cc3c4c(c2)CC(=O)N4CCC3)cc1 |
| -4.2% | Cc1sc(NC(=O)COc2cccc(-n3cnnn3)c2)c(C#N)c1C |
| 1.1% | COc1ccc(NC(=O)CCCN2C(=O)CCC2=O)cc1Cl |
| -13.7% | O=C(c1ccc(F)cc1)N1CCCC(c2ccccc2)C1 (stereo not drawn) |
| 12.3% | COc1ccc(OC)c(N(C(=O)c2snc(C(N)=O)c2N)C(C(=O)NCc2ccccc2)c2ccc(O)cc2)c1 (stereo not drawn) |
| -4.0% | CC(C)Sc1ccc(C(=O)Nc2ccc(F)cc2F)cn1 |
| 11.6% | COCC(C)NC(=O)c1oc2c(c1C)C1(CCC2)SCCS1 (stereo not drawn) |
| -26.4% | O=C1c2ccccc2S(=O)(=O)c2cc(C(=O)N3CCN(c4ncccn4)CC3)ccc21 |
| 8.4% | COC(=O)c1cc(S(=O)(=O)C(C)C)c(S(C)=O)s1 (stereo not drawn) |
| -10.2% | CCc1nc(SCC(=O)Nc2ccccc2OC)c2c(C)c(C)sc2n1 |
| 15.6% | CC(=O)c1cc(-c2ccccc2)n(CCC(=O)NCc2ccc(C)cc2)c1C |
| 4.3% | O/N=C1/CCc2cccc3cccc1c23 |
| 0.7% | CC1CCN(C(=O)COC(=O)c2cc(Cl)cc(Cl)c2N)CC1 |
| -27.6% | Cc1ccc(OCCSCc2nnc(NC(=O)Nc3cccc(Cl)c3)s2)cc1 |
| -1.8% | O=C(Nc1ccccc1)N1CCCC2(CCNCC2)C1 |
| -16.5% | COc1ccc(CCNC(=O)c2ccc(NS(=O)(=O)c3ccc4[nH]c(=O)[nH]c4c3)cc2)cc1 |
| -5.4% | CCOc1ccc2nc(NC(=O)c3cnccn3)sc2c1 |
| 21.9% | O=C(NNC(=O)c1ccc2[nH]c(=O)c(=O)[nH]c2c1)c1cccc(Br)c1 |
| -1.6% | C/C(=N\NS(=O)(=O)c1ccc(Cl)cc1)c1ccc(O)cc1 |

Nothing new here: an excerpt of the list.
| VDR inh | smiles |
| --- | --- |
| 4.3% | O/N=C1/CCc2cccc3cccc1c23 |
| 0.7% | CC1CCN(C(=O)COC(=O)c2cc(Cl)cc(Cl)c2N)CC1 |

(continued)
| VDR inh | smiles |
| --- | --- |
| -12.1% | O=C(NCc1cccs1)C1CC(c2ccc(F)cc2)=NO1 (stereo not drawn) |
| 18.2% | Cc1ccc(CCNC(=O)CCS(=O)(=O)c2ccc3nc(C)sc3c2)cc1 |
| -4.4% | CCN(CC)c1cccc(OC2=NS(=O)(=O)c3ccccc32)c1 |
| 3.5% | Cc1cccc(-c2nc(CS(=O)CC(=O)N3CCCCC3)c(C)o2)c1 (stereo not drawn) |
| 24.7% | COc1ccc(-c2cc(-c3nnc(COC(=O)CC4CCCC4)o3)c3ccccc3n2)cc1OC |
| 3.4% | O=C(Cn1cc(C(F)(F)F)cc(Cl)c1=O)NC1CCS(=O)(=O)C1 (stereo not drawn) |
| 10.6% | Cc1ccc(S(=O)(=O)NCC(=O)NCC2COc3ccccc3O2)cc1C (stereo not drawn) |
| -6.0% | CC(=O)N1c2ccc(S(=O)(=O)N(C)CC(=O)N(C)Cc3ccccc3)cc2CC1C (stereo not drawn) |
| -3.9% | CCN(Cc1ccccc1)C(c1ccc(C)cc1)c1nnnn1C(C)(C)CC (stereo not drawn) |
| -5.4% | Cc1cc(C)c(NC(=O)c2cccc(NC(=O)c3ccco3)c2)c(C)c1 |
| -17.9% | CC(C)(C)c1ccc(-c2n[nH]c(=S)n2/N=C/c2ccncc2)cc1 |
| 8.3% | COc1ccc(-c2cn3nc(N4CCC(C(=O)NCc5ccc(F)cc5)CC4)sc3n2)cc1 |
| -8.2% | CCc1ccc(NS(=O)(=O)c2c(C(=O)N3CCOCC3)c(C)n(C)c2C)cc1 |
| 10.5% | CCOC(=O)c1nn(-c2ccccc2)cc1O |
| 2.1% | N#CC1=C(SCC(N)=O)NC(=O)CC1c1cccc2ccccc12 (stereo not drawn) |
| 1.2% | CN(CC(=O)Nc1ccc(Cl)c(C(F)(F)F)c1)CC(=O)NC1CCCCC1 |
| -1.4%&-4.9% | CCN(CC)CCOC(=O)c1cc(Cl)c(N)cc1OC |
| -0.7% | CC(=O)c1c(C)[nH]c(C(=O)COC(=O)C2CC2)c1C |
| -0.3% | Cc1ccc(NC(=O)/C=C/c2ccccc2)c(Br)c1 |
| 10.6% | O=C(Nc1ccncc1)c1ccc(Cl)c(S(=O)(=O)N2CCCC2)c1 |
| -8.4% | Cc1cc(OCC(=O)NCCc2c[nH]c3ccccc23)c2c(C)cc(=O)oc2c1 |
| 2.6% | COc1ccc(CN2CCC(C(=O)N(C)CCc3ccc(OC)c(OC)c3)CC2)c(OC)c1 |
| 6.4% | CNc1c([N+](=O)[O-])cnn1-c1ccccc1Cl |
| 10.6% | O=[N+]([O-])c1ccc(C2OCCO2)cc1CS(=O)(=O)c1ccccc1 |
| -1.0% | O=C(Nc1ccccc1)C1CCN(c2nccs2)CC1 |
| -20.1% | Cc1ccc(SC(C)C(=O)NC(N)=O)c(C)c1 (stereo not drawn) |
| 0.3% | Clc1ccccc1CN1CCc2nc(N3CCN(c4ncccn4)CC3)ncc2C1 |
| 20.8% | Cc1nc(SCC(=O)NNC(=O)c2cccs2)[nH]c(=O)c1C |
| -1.4% | O=C(c1cccc(Cl)c1)N1CCC(N2CCC(C(=O)N3CCOCC3)CC2)CC1 |
| 9.5% | O=C(O)CCC(=O)Nc1ccc(C(=O)OCC(=O)c2ccc(Cl)cc2)cc1 |
| -5.1% | CC[C@@H]1[C@H]2CCCC(=O)N3CC[C@@H](C[C@@H]1OC(=O)Nc1ccccc1)[C@@H]23 |
| -3.5% | Cc1cccc(NC(=O)CSc2nnc(C3CC3)n2CC2CCCO2)c1C (stereo not drawn) |
| 2.8% | CN(C)c1ccc(S(=O)(=O)N2CCCCC2)cc1NC(=O)C1=NN(c2ccccc2)C(=O)CC1 |
| -14.2% | CNC(=S)N/N=C(\C)c1ccc(Cl)c(Cl)c1 |
| 10.5% | COc1ccc2oc(=O)c(C(=O)N3CCN(c4ccc(F)cc4)CC3)cc2c1 |
| 8.4% | Cc1ccc(NC(=O)CCNCc2ccco2)cc1S(=O)(=O)N(C)C |
| 1.0% | Cc1nc2c(C(=O)NCc3ccc4c(c3)OCO4)c[nH]n2c(=O)c1Cc1ccccc1F |
| 2.4% | O=C(NCc1ccccc1Cl)C1CCCN1S(=O)(=O)c1ccc(F)cc1 (stereo not drawn) |
| -21.1% | Cc1ccc(OCC(=O)NCC(=O)Nc2ccc(F)cc2)c([N+](=O)[O-])n1 |
| -22.0% | COCCNC(=O)C(C)OC(=O)c1cc2sccc2n1C (stereo not drawn) |
| ? | CC(C)(C)c1ccc(OCCn2c(CCNC(=O)C3CCCCC3)nc3ccccc32)cc1 |
| 5.6% | CC1(C)C2CCC1(CS(=O)(=O)N1CCN(c3ccc(F)cc3)CC1)C(=O)C2 (stereo not drawn) |
| -20.4% | CCC(C)(C)C1CCC2(CC1)NC(=S)N(c1ccccc1)N2 (stereo not drawn) |
| -9.1% | CC1=C(C(=O)N2CCOCC2)C(c2ccccc2F)C2=C(CC(C)(C)CC2=O)N1 (stereo not drawn) |
| -12.8% | CC(Oc1ccc2ccccc2c1)C(=O)NNC(=O)Nc1ccccc1F (stereo not drawn) |
| 5.6% | CCc1ncc(CN2CCC(C(=O)Nc3ccc(-n4nc(C)cc4C)cc3)CC2)cn1 |
| 6.2% | OCCNc1nc(Nc2cccc(O)c2)nc2ccccc12 |
| ? | CCOc1ccc(NC(=O)CSC(N)=O)cc1 |
| 6.3% | CCOC(=O)C1=C(CNCc2ccccc2Cl)NC(=O)NC1c1ccc2c(c1)OCO2 (stereo not drawn) |
| -6.9% | Cc1ccc(C(=O)c2cncc(Br)c2)cc1 |
| -9.6% | COC(=O)CSC(C)C(=O)Nc1nnc(C(C)C)s1 (stereo not drawn) |
| 0.8% | Cc1ccc(C(=O)NC2CCCCCC2)cc1N1CCCC1=O |
| 7.3% | CCOC(=O)c1cc(NC(=O)c2cccs2)ccc1N1CCOCC1 |
| -0.2% | CCn1c(=O)c2cc(C(=O)N3CCN(c4cccc(OC)c4)CC3)sc2c2ccccc21 |
| 4.6% | Cc1[nH]ncc1-c1nc2ccccc2[nH]1 |
| 10.6% | Cc1cc(C)c(S(=O)(=O)N2CCN(C(=O)c3cc4ccccc4oc3=O)CC2)c(C)c1 |

The closing 5 records of the section before are carried over, then new ones follow.
| VDR inh | smiles |
| --- | --- |
| 0.8% | Cc1ccc(C(=O)NC2CCCCCC2)cc1N1CCCC1=O |
| 7.3% | CCOC(=O)c1cc(NC(=O)c2cccs2)ccc1N1CCOCC1 |
| -0.2% | CCn1c(=O)c2cc(C(=O)N3CCN(c4cccc(OC)c4)CC3)sc2c2ccccc21 |
| 4.6% | Cc1[nH]ncc1-c1nc2ccccc2[nH]1 |
| 10.6% | Cc1cc(C)c(S(=O)(=O)N2CCN(C(=O)c3cc4ccccc4oc3=O)CC2)c(C)c1 |
| -5.6% | COc1ccc(NC(=O)CSc2nnnn2C2CCCCC2)cc1 |
| -5.0% | CCN1C[C@@H]2[C@@H]3C(=O)N(C)C(=O)[C@@H]3[C@](C)(C1=O)N2C(=O)c1ccc(Cl)cc1 |
| -6.4% | COc1cccc(CN(C)C(=O)c2cc(S(=O)(=O)N3CCCC3)ccc2C)c1OC |
| -10.9% | COCCNC(=O)c1cc2c3ccccc3n(C)c2s1 |
| -17.1% | CCn1c(=O)cc(SCC(=O)N2CCN(c3ccccc3OC)CC2)c2ccccc21 |
| -10.3% | CCN(CC)c1ccc(-c2n[nH]c(=S)n2-c2ccccc2)cc1 |
| 11.4% | COCCNC(=O)c1ccc2c(c1)ncn2-c1ccc(C)c(Cl)c1 |
| -17.2% | COc1ccc(NC(=O)c2ccco2)cc1NC(=O)c1ccc(C)cc1 |

Assay outcomes from PubChem.

The list is partial (hit frequency here may not be typical).
